From PubChem BioAssay
FGF22 binding = FGF22 (human) thermal shift binding; calls only at 9.99 µM; Q9HCT0; AID 651658; actives 1.5% (n = 340,000); recombinant FGF22 thermal shift, SYPRO orange fluorescence; percent of sucrose octasulfate shift, DMSO zero;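 active = melting point raised past a set limit in the mean and every replicate; inconclusive = no clear call; three in four hits are not shown here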
Target sequence (Q9HCT0 whole entry, looked up): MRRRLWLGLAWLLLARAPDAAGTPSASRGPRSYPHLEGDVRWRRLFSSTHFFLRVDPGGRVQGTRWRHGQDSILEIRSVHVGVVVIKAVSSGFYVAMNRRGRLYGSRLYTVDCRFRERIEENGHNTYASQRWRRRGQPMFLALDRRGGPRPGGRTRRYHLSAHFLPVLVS
ALR inh = human ALR oxidase inhibition via reduced H2O2. inhibition, % (test concentration not listed). P55789. actives 3.8% (n = 290,000). AID 485317. purified ALR, DTT oxidation, H2O2 HRP-luminol luminescence;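 active = mean and each replicate at 75% or more; inconclusive = only one of the two met; inactive = neither met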;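 also: stock transfer was 7.5 nL into about 7.5 µL; 0% = neutral wells and 100% = wells with inactivated enzyme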
Target sequence (P55789 whole entry, looked up): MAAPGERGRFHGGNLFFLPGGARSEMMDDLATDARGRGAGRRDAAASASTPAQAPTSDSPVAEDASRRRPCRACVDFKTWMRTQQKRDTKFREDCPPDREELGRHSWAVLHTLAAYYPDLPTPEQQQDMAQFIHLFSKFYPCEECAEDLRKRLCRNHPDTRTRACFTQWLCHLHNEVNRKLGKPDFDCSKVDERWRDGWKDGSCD
RanGTP-Imp inh = inhibitors of RanGTP-importin-beta interaction, primary screen, biochemical, FRET, CFP-Ran, YFP-importin-beta, homogeneous | actives 1.1% (n = 300,000) | inhibition, % (test concentration not listed) | cell-free CFP-Ran/YFP-importin-beta FRET ratio;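 active = most replicates above 15%; inconclusive = exactly half above 15%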;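 also: 0% = DMSO wells and 100% = Ran loaded with GDP instead of GTP; wells of about 40 µL received 100 nL stock; the first replicate is given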
Calb FLC = affects C. albicans growth with fluconazole. growth inhibition, % (concentration not given with the values). actives 0.57% (n = 300,000). C. albicans CaCi-2 (fluconazole-resistant clinical isolate) + fluconazole, Alamar Blue growth, 48 h;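 active = most replicates above 75%; inconclusive = exactly half above 75%; inactive = most below 75%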;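 also: all wells also contain fluconazole at 8 µg/ml as a sub-toxic cotreatment; 0% = median of DMSO wells and 100% = median of geldanamycin control wells; wells of about 8 µL received 7.5 nL stock; the first replicate is given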
MLL AF4-AF9 inh = blocks AF4 peptide binding to human AF9; actives 0.47% (n = 350,000); AlphaScreen, biotin-AF4 peptide binding to FLAG-AF9; inhibition, % at 10 µM;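 active = every replicate reaching a set inhibition limit, whatever the replicate mean, cut at about 25% in these data; inconclusive = mean inhibition reaches that limit but some replicates miss it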;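 also: 0% = plate neutral control median and 100% = total signal loss; the record names both 10 and 1 µM as test concentration; the first replicate is given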
Target sequence (P42568 whole entry, looked up): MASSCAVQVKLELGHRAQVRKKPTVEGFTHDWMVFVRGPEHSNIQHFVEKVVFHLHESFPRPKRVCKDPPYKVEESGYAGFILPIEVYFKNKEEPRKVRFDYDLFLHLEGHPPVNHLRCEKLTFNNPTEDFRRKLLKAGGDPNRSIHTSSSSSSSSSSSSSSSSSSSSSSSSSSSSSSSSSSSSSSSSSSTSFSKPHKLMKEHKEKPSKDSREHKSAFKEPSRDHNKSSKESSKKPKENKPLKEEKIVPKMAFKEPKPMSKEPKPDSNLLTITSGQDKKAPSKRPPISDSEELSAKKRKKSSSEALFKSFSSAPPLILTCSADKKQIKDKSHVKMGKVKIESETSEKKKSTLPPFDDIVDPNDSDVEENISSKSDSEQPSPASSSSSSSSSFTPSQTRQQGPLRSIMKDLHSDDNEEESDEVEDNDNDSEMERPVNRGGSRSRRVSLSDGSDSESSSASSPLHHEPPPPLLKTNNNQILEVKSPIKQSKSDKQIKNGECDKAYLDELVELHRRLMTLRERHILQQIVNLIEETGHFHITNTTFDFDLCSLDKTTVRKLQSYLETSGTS
T cruzi repl = T. cruzi replication inhibition. T. cruzi beta-gal in NIH3T3, luminescence, 90 h. inhibition, % (concentration not given with the values). actives 1.4% (n = 300,000);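 active = mean inhibition across valid replicates above about 55%, limit read from the data; inconclusive = mean below that limit but half or more replicates reach it; inactive = mean below it, under half of replicates reach it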;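 also: signal also drops with host cell toxicity which is not excluded here; 0% = plate median of DMSO wells and 100% = zero luminescence signal; higher percent means less beta-gal luminescence so fewer parasites; stock transfer was 50 nL into about 50 µL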
rRNA inh HTS = selective bacterial rRNA inhibition in E. coli. E. coli WT GFP vs humanized-ribosome RFP mutants, fluorescence, 24 h; active compounds read low; DMSO median 0, no signal -100. GFP signal change (wild-type ribosome), % (concentration not given with the values). actives 1.6% (n = 350,000);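 active = significant combined selectivity score with lowered wild-type GFP, culture density cut under 30%, mutant RFP and density less affected; inactive = any of these conditions unmet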; also: one replicate is shown; some compounds called inactive have numbers as strong as hits
Beta cell apopt = beta cell apoptosis inhibition; protection from apoptosis, % (concentration not given with the values); actives 0.8% (n = 300,000); AID 435005; INS-1E cytokine-induced death, ATP luminescence, 48 h; percent of positive-control rescue, neutral wells zero;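 active = all replicates at 75% or more, or half of them and the mean; inconclusive = half reach 75% but not the mean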;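 also: 0% = cytokine-treated negative control wells and 100% = positive control rescue; higher means more ATP so stronger rescue from cytokine killing; wells of about 40 µL received 100 nL stock; the first replicate is given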
rRNA inh HTS OD600 = further read-out of rRNA inh HTS, marked with its call; OD600 change, %; measured here: OD600 growth;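 optical density of the mix in the first replicate; 0 = DMSO median and -100 = no signal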
rRNA inh HTS RFP = also measured in rRNA inh HTS; calls as there; RFP signal change, %; measured here: RFP humanized mutant strains;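 first replicate; 0 = DMSO median and -100 = no signal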
* hit, by the source's call; i = inactive; ? = inconclusive; nt = no result given. The list is partial, so the mix of outcomes need not match the whole.

SMILES	FGF22 binding	ALR inh	RanGTP-Imp inh	Calb FLC	MLL AF4-AF9 inh	T cruzi repl	rRNA inh HTS	rRNA inh HTS OD600	rRNA inh HTS RFP	Beta cell apopt
CC(=O)Nc1nc(C)nc(C)c1C(C)=O	nt	20	-2.7	-7	nt	-5	nt	nt	nt	-2
Cc1cc(C)nc(NC(=O)Cc2ccc(Br)cc2)n1	nt	0	0.4	-2	-0.3	1	13	9	2.1	-2
COc1cc(NC(=O)c2cccnc2Sc2ccc(Cl)cc2)cc(OC)c1OC	i	-5	2.9	-7	-1.0	-11	6	1	3.3	-5
CC(=O)c1sc(NC(=O)c2oc3ccc(F)cc3c2C)nc1C	i	-3	nt	nt	-1.2	nt	16	12	-0.6	5
COc1ccc(C(=O)COc2ccc(F)cc2)c(O)c1C	nt	-1	-0.7	-26	nt	2	nt	nt	nt	-2
Cc1nn(-c2ccccc2)c(N)c1N=Nc1cccnc1	i	-2	-3.6	-16	12	8	-22*	3.8*	1.9*	-2
CNC(=O)c1ccc(Nc2nnc(-c3ccc(C)c(S(N)(=O)=O)c3)c3ccccc23)cc1	i	-9	-1.3	-1	-1.7	-5	-10	-4	-2.7	0
Nc1ncc2c(n1)-c1ccccc1CC2	i	-19	-1.0	-6	-0.9	-16	-10	-3	-2.8	7
O=C(COC(=O)CCc1nc2ccccc2c(=O)[nH]1)Nc1ccc2c(c1)OCO2	i	nt	6.6	-4	7.9	9	7	-1	-5.4	0
COCCOn1c(SCCOC)nc2ccccc2c1=O	i	-2	-1.9	-4	-1.5	-4	12	5	0.4	0
Cc1ccc(N(CC(=O)NCC2CCCO2)S(=O)(=O)c2ccccc2)c(C)c1 (stereo not given)	nt	1	2.6	3	0.7	-5	5	-7	2.4	2
O=C(Cn1cnc2scc(-c3ccccc3)c2c1=O)NCc1ccco1	i	nt	5.9	-23	1.1	-12	-3	-5	-4.6	2
NS(=O)(=O)c1ccc(NC(=O)c2ccc(F)cc2F)c(NC(=O)c2ccc(F)cc2F)c1	i	nt	-1.2	-1	2.3	-8	-3	-4	-2.0	-1
O=C(CNC(=O)c1ccccc1Cl)Nc1ccc(F)cc1	nt	1	-0.3	8	nt	0	nt	nt	nt	-6
Cc1ccc2nc(C(=O)N3CCCC(Nc4ccc(F)cc4)C3)cn2c1 (stereo not given)	i	30	-1.7	3	-0.2	-3	1	1	1.6	-8
CCCCCN(C(=O)NC(=O)Nn1cnnc1)S(C)(=O)=O	nt	2	0.0	10	nt	-11	nt	nt	nt	nt
COc1ccc(C)cc1NC(=O)C1CC(=O)N(CCc2ccccc2)C1 (stereo not given)	i	2	0.2	14	-2.0	-3	4	-1	0.7	-1
N#Cc1c(=O)c2nc(NCc3ccccc3)ncc2n2ccccc12	nt	-93	38*	11	nt	4	nt	nt	nt	-1
O=C(CSc1nnc(-c2ccncc2)o1)Nc1ccc(F)c(F)c1	i	11	nt	nt	-0.8	nt	6	13	1.1	-6
Cc1ccccc1-c1ccc(=O)n(CC(=O)Nc2ccc(N3CCOCC3)cc2)n1	nt	11	1.4	0	nt	1	nt	nt	nt	2
COC(=O)c1ccc(N)cc1O	nt	6	-0.5	2	nt	-11	nt	nt	nt	nt
NC(=O)c1ccsc1NC(=O)COC(=O)/C=C/c1ccccc1[N+](=O)[O-]	i	10	nt	nt	2.8	nt	-23	-36	-1.5	0
C/C(=N\NC(=O)Cc1ccc(Cl)cc1)c1cccnc1	i	-9	-0.5	4	-0.5	3	0	0	-0.6	-16
CN(C)C(=O)CN(C)S(=O)(=O)c1ccc(Cl)cc1	nt	-3	-4.2	0	nt	-7	nt	nt	nt	-3
CCn1c(C)c(C(C)=O)c(N2CCCCC2)nc1=S	nt	-12	1.6	-8	nt	-28	nt	nt	nt	-2
Remaining list, next part:
SMILES	FGF22 binding	ALR inh	RanGTP-Imp inh	Calb FLC	MLL AF4-AF9 inh	T cruzi repl	rRNA inh HTS	rRNA inh HTS OD600	rRNA inh HTS RFP	Beta cell apopt
COc1ccc(CNC(=O)C(C)N2C(=O)NC(c3ccccc3)(c3ccccc3)C2=O)cc1 (stereo not given)	i	nt	nt	nt	-7.6	nt	-14	-18	1.4	0
CC(=O)Oc1ccc(C(=O)Nc2cccc(C(=O)c3ccc(C)c(C)c3)c2)cc1	i	5	2.0	-5	14	14	-26	-34	11	9
CCOc1ccc(C(C(=O)NC2CCCCC2)N(C(=O)Cc2cccs2)c2ccc(-n3cnnn3)c(OC)c2)cc1 (stereo not given)	nt	13	0.2	-8	nt	30	nt	nt	nt	10
COc1ccc(CCNC(=O)c2cccc(S(=O)(=O)N3CCCCCC3)c2)cc1	i	-1	nt	nt	0.0	nt	nt	nt	nt	1
C=CCn1c(=S)sc2c(=O)[nH]cnc21	i	-10	-2.6	2	-0.3	-6	-23*	-8.8*	4.9*	-1
O=C(CCCC(=O)OCC(=O)c1cccs1)Nc1ccc(Oc2ccccc2)cc1	nt	4	?	-5	nt	-8	nt	nt	nt	-7
COC(=O)[C@H](CCSC)NC(=O)Nc1cccc(C)c1C	i	nt	-4.3	1	-2.0	9	8	1	-0.5	nt
O=C(O)c1cnc(N2CCOCC2)nc1	i	-7	2.4	-6	-1.2	-7	13	6	0.9	-7
NCC(O)COCCC12CC3CC(CC(C3)C1)C2 (stereo not given)	nt	-5	-0.8	-32	nt	-8	nt	nt	nt	-2
CC(C)CN(C(=O)CC1CCCC1)c1c(N)n(Cc2ccccc2)c(=O)[nH]c1=O	i	-8	-1.7	-5	-2.5	-5	7	7	-0.1	-2
Cn1ccnc1SCCC#N	nt	-19	-2.2	15	nt	-3	nt	nt	nt	-3
CCC(=O)N1CCc2cc(S(=O)(=O)NC(C(=O)NCc3ccccc3)C(C)C)ccc21 (stereo not given)	nt	-10	6.2	-7	nt	-3	nt	nt	nt	-2
NNC(=O)c1csc(COc2cc(Cl)cc(Cl)c2)n1	i	3	2.1	-10	-4.6	-3	6	-4	3.9	-2
Cc1cccc(OCC(=O)NCC(=O)N/N=C/c2cccnc2)c1	i	-7	-1.6	-4	nt	13	7	3	0.3	1
CN(C)c1ccc(/C(=N\O)C(F)(F)F)cc1	i	98*	0.4	5	5.5	-27	-31*	-24*	-0.1*	-4
CCC1(CC)C(=O)C2=C3C1[C@H](C(=O)OC)CC(C(=O)OC)C[C@H]3n1c(=O)n(-c3ccccc3)c(=O)n1[C@H]2C (stereo not given in full)	i	-1	-5.1	-8	5.4	21	4	-6	2.0	-2
Cc1noc(C)c1C(=O)Nc1cccc(S(=O)(=O)N2CCCCC2)c1	i	4	nt	nt	4.5	nt	-1	0	0.7	-2
C[C@H](NC(=O)c1nc[nH]c1C(=O)NCc1ccc(CNC(=O)OC(C)(C)C)cc1)c1ccccc1	i	-6	nt	nt	-49	nt	-13	-31	8.3	25
COc1ccccc1NC(=O)CC1COc2ccccc2O1 (stereo not given)	nt	-10	-2.6	1	nt	3	nt	nt	nt	-7
CCc1ccc(NC(=O)C(CC)c2ccccc2)cc1 (stereo not given)	i	nt	3.0	12	3.6	-4	nt	nt	nt	1
CCCCNC(=O)[C@@H]1CC=C[C@@H]2CCN(C3CC3)C(=O)[C@@H]21	i	nt	0.8	0	-7.7	0	10	12	3.1	2
Cc1c(C(=O)N2CCOCC2)c(S(=O)(=O)Nc2cccc(C#N)c2)c(C)n1C	i	-1	-0.9	-2	-16	0	8	3	-1.8	-7
CCN(CCO)C(=O)C12CCC(C)(C(=O)C1)C2(C)C (stereo not given)	nt	-5	2.3	-7	nt	5	nt	nt	nt	-1
Cc1cc(C)c(S(=O)(=O)N2CCCC2CNC(=O)c2ccc3c(c2)OCO3)c(C)c1 (stereo not given)	i	1	4.9	-18	-10	-2	-10	-16	6.5	-1
CN(CCOc1ccccc1)C(=O)CCc1c[nH]c2ccccc12	i	96*	0.0	-2	-17	5	-17	-24	3.4	-5
Continued:
SMILES	FGF22 binding	ALR inh	RanGTP-Imp inh	Calb FLC	MLL AF4-AF9 inh	T cruzi repl	rRNA inh HTS	rRNA inh HTS OD600	rRNA inh HTS RFP	Beta cell apopt
O=C(NC1CCS(=O)(=O)C1)c1cccc(S(=O)(=O)N2CCCCCC2)c1 (stereo not given)	i	-12	4.2	0	-2.5	2	7	0	3.3	3
C/C=C/C=C/C(=O)N1CC[C@]23c4ccccc4N[C@H]4N(C)c5cccc6c5[C@]42CCN([C@H]6C2OC2(C)C)[C@H]13 (stereo not given in full)	i	-17	5.0	15	24	35	nt	nt	nt	nt
O=C(CN(Cc1cccs1)C(=O)CNS(=O)(=O)c1ccc(F)cc1)NCc1ccco1	nt	-7	1.2	-1	nt	1	nt	nt	nt	1
CCCCNC(=O)CSc1nc2ccsc2c(=O)n1C1CCN(C(=O)OCC)CC1	i	0	-2.3	-11	7.2	9	6	3	-1.6	-2
CC(NC(=S)NCCc1ccccc1)C(c1cccs1)N1CCN(Cc2ccccc2)CC1 (stereo not given)	i	-10	-0.3	-2	13	44	-22	-60	5.7	26
O=C(c1ccc([N+](=O)[O-])cc1)N1CCSC1c1ccccc1 (stereo not given)	nt	0	0.1	-9	nt	-14	nt	nt	nt	-1
O=C(/C(=C/O)N=Nc1ccccc1)c1ccncc1	nt	-25	-1.4	11	nt	-14	nt	nt	nt	4
CCOC(=O)Cc1csc(NC(=O)/C=C/c2ccc(OC)cc2)n1	i	-4	-4.1	32	6.4	-5	-31	-45	-5.7	10
Cn1c(-c2ccsc2)c(-c2cccs2)c2cc(-c3ccc4cc[nH]c4c3)ccc21	i	-4	nt	nt	nt	nt	8	11	0.7	-3
CCOC(=O)N1CCN(C(=O)c2ccc3nc(N4CCCCC4)sc3c2)CC1	nt	2	3.0	-2	nt	3	nt	nt	nt	4
Oc1ccccc1-c1nc(/C=C/c2ccccc2)nn1-c1ccccc1	i	nt	-2.0	?	8.2	15	nt	nt	nt	2
O=C(O)c1nn(CC(=O)N(C2CCCCC2)C2CCCCC2)c(=O)c2ccccc12	i	1	0.4	-1	-1.1	-13	12	11	-4.8	13
COc1ccccc1C(=O)NCCC(=O)N1CCN(C(C)=O)CC1	i	3	1.7	-7	2.1	-11	9	13	0.3	-4
O=C(Nc1ccc(C(=O)N2CCN(c3ccc(Cl)cc3)CC2)cc1)C1=CSCCO1	i	3	2.7	4	1.3	-16	-1	-3	-1.0	0
Cc1ccc(-c2nc3ccccc3c(=O)n2NC(=S)N(C)C)cc1	nt	-5	3.6	-12	nt	-4	nt	nt	nt	-8
COc1ccc(CNC(=O)COC(=O)CN2C(=O)COc3ccccc32)cc1	i	-11	0.8	-4	-18	1	5	2	-0.7	nt
CCOc1cc2c3c(c1)C1(C(=O)N3C(C)(C)CC2C)C(C#N)=C(N)N2C(=C1C#N)Nc1ccccc12 (stereo not given)	nt	-10	-0.1	34	nt	8	nt	nt	nt	-3
CCN1C(=O)[C@H]2[C@@H](c3ccc(-c4ccc(Cl)c(Cl)c4)c(OC)c3)N[C@@](C)(C(=O)OC)[C@H]2C1=O	i	3	2.9	23	3.9	-12	0	-13	16	-2
CCOC(=O)C1CCN(C(=O)CSc2ccc(Cl)cc2)CC1	nt	-10	-1.2	4	nt	-16	nt	nt	nt	-9
S=C(NCCc1ccc(Cl)cc1)NC1CCCC1	i	-21	5.8	-33	0.5	-35	-6	-8	-3.2	-2
CC(=O)N1CCc2cc3nc(C)cc(C)c3cc21	nt	-27	6.8	2	nt	11	nt	nt	nt	-2
